Lassa entry inh: inhibitors of Lassa virus binding or cell entry. Lassa virus pseudotype entry inhibition, cell reporter; control for the full effect not named in the record. Potency, µM (top dose mostly 37.9 µM), inactives show at the highest dose activity change, negative = inhibition, actives largely listed as inhibitors. hit rate 1.2% among 300,000. AID 540256; active means well fitted inhibition curve with a large enough effect; inconclusive means small, poorly fitted or top-dose-only effect, or effect the other way; inactive means flat fitted curve, though single readings scatter; tested in HEK293 cells; also: nearly all actives have a fitted effect of over 50% in size; luciferase read-out
2A StopGo: lowers the luciferase signal of an FMDV 2A StopGo reporter. Potency, µM (series often up to 57.9 µM), for inactives: top-dose signal change, negative = less light. human cells with a luciferase reporter of 2A StopGo recoding; control for the full effect not named in the record. hit rate 1.2% among 410,000; active = well fitted falling curve with a large enough effect; inconclusive = small, poorly fitted or top-dose-only effect; inactive = no such curve, though single readings can be large or run the other way; tested in HEK293T cells; also: nearly all actives have a fitted effect of over 45% in size; luciferase light after 4 h
An asterisk follows results filed as active; ? = inconclusive; [ ] = dose if it differs, or a comment. % is scaled to controls: 0 for no effect and ±100 for the full control effect; potency is read from the fitted curve at half-maximal effect.

nr	structure	Lassa entry inh	2A StopGo
1	COc1ccc(NC(=O)Cn2c(SCc3ccc(C)cc3)nc3cccnc32)c(OC)c1	-3%[46.1 µM]	-2%
2	Cc1cccc(CNC(=O)Cn2c(-c3cccs3)cc3ccccc32)c1	-1%[46.1 µM]	-19%
3	O=C(NCc1ccccc1F)C1CCN(c2nn3cc(-c4ccc(F)cc4)nc3s2)CC1	?	35%[activator]
4	Cc1cc(F)ccc1NC(=O)C(c1ccccc1)N1Cc2ccccc2C1=O (stereo not drawn)	2%[46.1 µM]	18%
5	O=S(=O)(NCc1ccc(Cl)cc1)c1ccc2[nH]c3c(c2c1)CCCC3	22%[46.1 µM]	12%
6	O=C(COCc1cc(-c2ccco2)on1)Nc1ccc(OC(F)(F)F)cc1	-5%[46.1 µM]	-16%
7	CS(=O)(=O)CCC(C(=O)Nc1cccc(C(F)(F)F)c1)N1Cc2ccccc2C1=O (stereo not drawn)	9%[46.1 µM]	9%
8	COc1ccccc1Nc1ncnc2c1nc1n2CCCCC1	-1%[46.1 µM]	3%
9	CCOc1ccc(NC(=O)N2CCC(CN3CCCCCC3)CC2)cc1	23%[46.1 µM]	17%
10	CCCn1cc(S(=O)(=O)c2ccc(C)c(C)c2)c(=O)c2cc(F)c(N3CCC(C)CC3)cc21	-2%[46.1 µM]	6%

Next section, starting with the last six of the part before.
nr	structure	Lassa entry inh	2A StopGo
5	O=S(=O)(NCc1ccc(Cl)cc1)c1ccc2[nH]c3c(c2c1)CCCC3	22%[46.1 µM]	12%
6	O=C(COCc1cc(-c2ccco2)on1)Nc1ccc(OC(F)(F)F)cc1	-5%[46.1 µM]	-16%
7	CS(=O)(=O)CCC(C(=O)Nc1cccc(C(F)(F)F)c1)N1Cc2ccccc2C1=O (stereo not drawn)	9%[46.1 µM]	9%
8	COc1ccccc1Nc1ncnc2c1nc1n2CCCCC1	-1%[46.1 µM]	3%
9	CCOc1ccc(NC(=O)N2CCC(CN3CCCCCC3)CC2)cc1	23%[46.1 µM]	17%
10	CCCn1cc(S(=O)(=O)c2ccc(C)c(C)c2)c(=O)c2cc(F)c(N3CCC(C)CC3)cc21	-2%[46.1 µM]	6%
11	COc1ccc(-c2cn3nc(N4CCCC(C(=O)Nc5cccc(Cl)c5C)C4)sc3n2)cc1 (stereo not drawn)	0%[46.1 µM]	-14%
12	O=C(NCc1ccccc1)c1nc(-c2ccc(Cl)cc2)n2c1CCCCC2	?	-16%
13	CCOc1ccccc1N(C)C(=O)C1CCCN(c2ncnc3c2nc2n3CCCCC2)C1 (stereo not drawn)	2%[46.1 µM]	-34%
14	COc1ccc(OC)c(-c2noc(N3CCN(c4ccc(Cl)cc4)CC3)n2)c1	-2%[46.1 µM]	-19%
15	Cc1cc(F)ccc1NC(=O)C(C(C)C)N1Cc2ccccc2C1=O (stereo not drawn)	13%[46.1 µM]	2%
16	COc1ccc(CNC(=O)COCc2cc(-c3cccs3)on2)cc1OC	3%[46.1 µM]	?
17	COc1ccc(-c2cn3nc(N4CCC(C(=O)Nc5cccc(OC)c5)CC4)sc3n2)cc1	25%[46.1 µM]	18%
18	CCCCn1cc(S(=O)(=O)c2ccc(CC)cc2)c(=O)c2cc(F)c(N3CCOCC3)cc21	3%[46.1 µM]	12%
19	CCc1ccccc1NC(=O)N1CC(C)Sc2ccccc21 (stereo not drawn)	11%[46.1 µM]	1%
20	O=C(Nc1ccccc1)N(Cc1ccc2c(c1)OCO2)C1CCN(Cc2ccccc2)CC1	-20%[46.1 µM]	-13%
21	CSc1ncc(C(=O)NCc2ccc(C)cc2)c(C)n1	-10%[46.1 µM]	-13%
22	COc1ccccc1CNC(=O)c1ccc(Cn2c(SCc3ccccc3)nc3cccnc32)cc1	7%[46.1 µM]	9%
23	CCOC(=O)C(C)NC(=O)C1CCN(c2ncnc3c2nc2n3CCCCC2)CC1 (stereo not drawn)	15%[46.1 µM]	8%
24	O=C(Cn1ncc2c([nH]c3ccccc32)c1=O)NCc1cccc(Cl)c1	7%[46.1 µM]	7%
25	CN(C(=O)Cn1cc(S(=O)(=O)Cc2ccccc2Cl)c2ccccc21)c1ccccc1	?	-13%
26	CN(C)CCNC(=O)c1ccc(Cn2c(SCc3ccc(F)cc3)nc3cccnc32)cc1	?	2%
27	O=C(Cn1c(-c2cccs2)cc2ccccc21)NCc1ccccc1Br	-3%[46.1 µM]	-29%
28	COc1cccc(NC(=O)Cn2cc(S(=O)(=O)Cc3ccccc3F)c3ccccc32)c1	-7%[46.1 µM]	-17%
29	CCOc1ccccc1CNC(=O)CCCN1C(=O)c2cccnc2Oc2ccc(Cl)cc21	8%[46.1 µM]	-9%
30	O=C(Nc1cc(F)ccc1F)N1CCC(CN2CCOCC2)CC1	?	-11%
31	O=C(CN1C(=O)COc2ccc(S(=O)(=O)NC3CCCC3)cc21)Nc1ccc(Cl)cc1	2%[46.1 µM]	38%[activator]
32	Cc1cc(Nc2cccc(C(F)(F)F)c2)nc2ccc(NC(=O)c3ccc(=O)[nH]c3)cc12	-27%[46.1 µM]	-9%
33	CC1=C(C(=O)NCc2ccc(Cl)cc2)C2(CCCCCC2)OC1=O	-3%[46.1 µM]	-1%
34	COc1ccc(-c2noc(CSCC(=O)Nc3cccc(C(F)(F)F)c3)n2)cc1OC	-9%[46.1 µM]	22%
35	O=C(NCc1cccs1)c1ccc(CSc2nc3cccnc3n2Cc2ccc(F)cc2)cc1	?	-11%
36	Cc1cccc(Cn2c(SCc3ccc(C(=O)NC4CCCCC4)cc3)nc3cccnc32)c1	?	?
37	CCN(CC)c1cc2c(cc1F)c(=O)c(S(=O)(=O)c1ccccc1)cn2Cc1ccccc1	-36%[46.1 µM]	-24%
38	CCc1cccc(C)c1NC(=O)c1cn2c3c(ccc(Cl)c3c1=O)OC(C)C2 (stereo not drawn)	7%[46.1 µM]	-1%
39	COc1ccc(OC)c(-c2noc(N3CCN(c4ccc(C(C)=O)cc4)CC3)n2)c1	7%[46.1 µM]	?
40	CCOc1ccccc1NC(=O)C(CC)Sc1nc2ncccc2[nH]1 (stereo not drawn)	29%[46.1 µM]	-16%

Copied from above: entries 32–35
nr	structure	Lassa entry inh	2A StopGo
32	Cc1cc(Nc2cccc(C(F)(F)F)c2)nc2ccc(NC(=O)c3ccc(=O)[nH]c3)cc12	-27%[46.1 µM]	-9%
33	CC1=C(C(=O)NCc2ccc(Cl)cc2)C2(CCCCCC2)OC1=O	-3%[46.1 µM]	-1%
34	COc1ccc(-c2noc(CSCC(=O)Nc3cccc(C(F)(F)F)c3)n2)cc1OC	-9%[46.1 µM]	22%
35	O=C(NCc1cccs1)c1ccc(CSc2nc3cccnc3n2Cc2ccc(F)cc2)cc1	?	-11%

More results
nr	structure	Lassa entry inh	2A StopGo
41	O=C(CN1C(=O)COc2ccc(S(=O)(=O)NC3CCCC3)cc21)Nc1ccc(F)c(Cl)c1	?	-12%
42	COc1ccc(Cl)cc1C(=O)Nc1ccc(-c2nnc3n2CCCCC3)cc1	-11%[46.1 µM]	0%
43	Cc1cccc(NS(=O)(=O)c2ccc3c(c2)CC(C)N3C(=O)C2CCC2)c1C (stereo not drawn)	?	-17%
44	CC(C)c1ccc(Nc2ncnc3c2nc2n3CCCC2)cc1	?	-5%
45	O=C(Cn1cc(S(=O)(=O)Cc2ccccc2Cl)c2ccccc21)Nc1ccc(F)cc1F	1%[46.1 µM]	-1%
46	COc1ccc(OC)c(CCNC(=O)Cn2ncc3c([nH]c4ccccc43)c2=O)c1	-6%[46.1 µM]	-13%
47	COc1ccc(-c2cn3nc(N4CCCC(C(=O)Nc5cc(C)ccc5C)C4)sc3n2)cc1 (stereo not drawn)	38%[46.1 µM]	-11%
48	Cc1ccccc1CSc1nc2cccnc2n1Cc1ccc(C(=O)NC2CC2)cc1	?	26%
49	Cc1ccc(NC(=O)CSc2nc3ncccc3[nH]2)cc1F	?	21%
50	Cc1cc2c(n1-c1ccc(C(=O)NCCc3ccc(Cl)cc3)cc1)CCCC2	?	-9%
51	O=C(NCc1ccccc1)c1cccc(Nc2nc3ccccc3n3nnnc23)c1	?	0%
52	Cc1ccc(Cl)cc1N1CCN(C(=O)Cn2ncc3c([nH]c4ccccc43)c2=O)CC1	11%[46.1 µM]	2%
53	O=C(COCc1cc(-c2cccs2)on1)NCc1ccccc1Cl	10%[46.1 µM]	5%
54	CC1=C(C(=O)Nc2ccc(C)c(C)c2)C2(CCCCCC2)OC1=O	-11%[46.1 µM]	13%
55	O=C(NC1CCCCC1)c1ccc(Cn2c(SCc3cccc(F)c3)nc3cccnc32)cc1	-1%[46.1 µM]	-26%
56	CC(=O)N1CCC(N(Cc2ccc(C)o2)C(=O)Nc2ccccc2F)CC1	19%[46.1 µM]	-1%
57	O=c1c(S(=O)(=O)c2cccc(Cl)c2)cn(Cc2ccccc2)c2cc(N3CCOCC3)c(F)cc12	-14%[46.1 µM]	5%
58	CC(NC(=O)Cn1c(-c2cccs2)cc2cc(F)ccc21)c1ccccc1 (stereo not drawn)	-17%[46.1 µM]	-22%
59	COc1cccc(CNC(=O)C2=C(C)C(=O)OC23CCN(C(C)=O)CC3)c1OC	13%[46.1 µM]	-9%
60	CN(C)CCCN(C(=O)c1ccc(Br)s1)c1nc2ccc(F)cc2s1	18%[46.1 µM]	-15%
61	Cc1cccc(N(C)C(=O)CN(C)S(=O)(=O)c2ccc3[nH]c4c(c3c2)CCCC4)c1	?	-7%
62	CC(C)CCN(Cc1ccco1)C(=O)Cn1ncc2c([nH]c3ccccc32)c1=O	-16%[46.1 µM]	?
63	CCc1cccc(NC(=O)C(c2ccccc2)N2Cc3ccccc3C2=O)c1 (stereo not drawn)	3%[46.1 µM]	31%[activator]
64	CCN1CCN(C(=O)Cn2c(-c3cccs3)cc3cc(Cl)ccc32)CC1	-9%[46.1 µM]	-16%
65	Cc1ccc(CNC(=O)CCCN2C(=O)c3cccnc3Oc3ccc(Cl)cc32)cc1	11%[46.1 µM]	0%
66	CCc1ccccc1N(C)C(=O)C1CCCN(c2ncnc3c2nc2n3CCCCC2)C1 (stereo not drawn)	-11%[46.1 µM]	?
67	CCOC(=O)N1CCC2(CC1)OC(=O)C(C)=C2C(=O)NCc1cccc(F)c1	8%[46.1 µM]	-13%
68	CCCn1c2ccccc2c2cnn(CC(=O)N3CCCC(C)C3)c(=O)c21 (stereo not drawn)	-4%[46.1 µM]	-4%
69	COc1cc(NC(=O)COCc2cc(-c3ccc4c(c3)OCO4)on2)c(OC)cc1Cl	10%[46.1 µM]	-6%
70	COc1cc(NC(=O)C(CCS(C)(=O)=O)N2Cc3ccccc3C2=O)cc(OC)c1OC (stereo not drawn)	9%[46.1 µM]	0%
71	COc1ccc(OC)c(NC(=O)CN(C)S(=O)(=O)c2ccc3[nH]c4c(c3c2)CCCC4)c1	0%[46.1 µM]	0%
72	CCOc1ccccc1CNC(=O)c1nc(-c2ccc(Cl)cc2)n2c1CCCCC2	-14%[46.1 µM]	-20%
73	CC(=O)c1ccc(C(=O)N(CCCN(C)C)c2nc3c(C)c(C)ccc3s2)cc1	?	-22%
74	Cc1ccc(S(=O)(=O)c2cn(C)c3cc(N4CCCCCC4)c(F)cc3c2=O)cc1	-6%[46.1 µM]	-27%
75	Cc1cccc(S(=O)(=O)c2cn(Cc3ccccc3)c3cc(N4CCCCC4C)c(F)cc3c2=O)c1 (stereo not drawn)	-23%[46.1 µM]	-6%
76	Cc1ccc(CNC(=O)CN2Cc3ccccc3C2=O)cc1	12%[46.1 µM]	22%
77	COc1ccc(CNC(=O)CCCN2C(=O)c3cccnc3Oc3ccc(Cl)cc32)cc1	-4%[46.1 µM]	-19%
78	Cc1cccc(Cn2c(SCc3ccc(C(=O)NCc4cccs4)cc3)nc3cccnc32)c1	?	0%
79	CCC(C)NC(=O)Cn1c(-c2cccs2)cc2cc(Cl)ccc21 (stereo not drawn)	2%[46.1 µM]	-16%
80	O=C(NCc1ccccc1)c1ccc(CSc2nc3cccnc3n2Cc2ccccc2)cc1	-21%[46.1 µM]	-22%
81	CCCCn1cc(S(=O)(=O)c2ccccc2)c(=O)c2cc(F)c(N3CCC(C)CC3)cc21	3%[46.1 µM]	-16%
82	Cc1oc(-c2ccccc2Cl)nc1Cn1c(SCc2cccc(F)c2)nc2cccnc21	?	-14%
83	CC(CNC(=O)Cn1c(-c2cccs2)cc2ccccc21)c1ccccc1 (stereo not drawn)	-6%[46.1 µM]	-24%
84	O=C(NCCc1cccs1)c1ccc(Cn2c(SCc3ccccc3)nc3cccnc32)cc1	-10%[46.1 µM]	-8%
85	Cc1ccc(NC(=O)CN2C(=O)COc3ccc(S(=O)(=O)NC4CCCC4)cc32)cc1N(C)C	-18%[46.1 µM]	0%
86	Cc1ccc(CNC(=O)c2ccc(Cn3c(SCc4ccccc4F)nc4cccnc43)cc2)cc1	-7%[46.1 µM]	0%
87	CN(C)c1ccc(NC(=O)Cn2cc(S(=O)(=O)Cc3cccc(Cl)c3)c3ccccc32)cc1	0%[46.1 µM]	19%
88	O=C(NCCc1ccccc1)C1CCN(c2ncnc3c2nc2n3CCCCC2)CC1	15%[46.1 µM]	0%
89	CCOc1ccc(CCNC(=O)Cn2c(-c3cccs3)cc3ccccc32)cc1	-20%[46.1 µM]	-1%
90	COc1cc(NC(=O)CN2C(=O)COc3ccc(S(=O)(=O)NC4CCCC4)cc32)cc(OC)c1	14%[46.1 µM]	-11%
91	CC(NC(=O)c1ccc(Cn2c(SCc3ccccc3)nc3cccnc32)cc1)c1ccccc1 (stereo not drawn)	-2%[46.1 µM]	-15%

Not all compounds are listed (hit frequency here may not be typical).
